BJeLR viability = MLPCN primary cell-based screen for lethality selective to Ras in HRASV12 cells. BJeLR (HRASV12) viability, CellTiter-Glo ATP luminescence, 48 h; reference of the scale not given here. AID 1554, 2009. inhibition, % (test concentration not listed). actives 0.17% (n = 300,000);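 active = replicate mean above 50%; inconclusive = above 50% but judged a plate artefact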;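 also: 50 nL library stock added to about 25 µL; numbers are from one replicate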
Autofluor counter = flagged as autofluorescent in microsphere protease counterscreen; compound autofluorescence counterscreen, microsphere flow cytometry; active compounds read high; fluorescence intensity (no concentration beside the values); actives 3.1% (n = 360,000); AID 624483;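 active = at least 3 SD above the mean of all compounds, about 16000 in these data; inconclusive = too few beads counted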;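 also: 100 nL of 1 mM stock went into each well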
Mtb hypoxia rep = PubChem AID 1159583. M. tuberculosis hypoxia-regulated fluorescent reporter, fluorescence. fluorescence inhibition, % (concentration not given with the values). actives 0.1% (n = 300,000);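 active = 35 to 45% if threefold the growth effect, above 45% if 1.5-fold the growth effect; inactive = the rest, general growth blockers included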;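 also: wells of about 50 µL received 100 nL stock; 0% = vehicle wells and 100% = reference inhibitor wells; whole bacteria with a GFP reporter of the hypoxia response; strong numbers were not always called active; many hits fall short of the cut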
PrP 5UTR inh = inhibition of PrP 5' UTR reporter expression. actives 0.35% (n = 340,000). cell-based PrP 5' UTR mRNA reporter, plate reader. inhibition, % (test concentration not listed);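 active = every replicate at 50% or more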;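 also: 0 = median of the neutral control wells; tested in H4 reporter cells; numbers are from one replicate; inactives centre near -14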
ugtP null kill = growth inhibition of ugtP-null S. aureus, primary screen, RN4220 ugtP deletion, OD600. 16 h; some inactives read as strong as hits. growth inhibition, % (no concentration beside the values). actives 0.54% (n = 330,000). AID 1259309, 2017;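 active = z-score under -3 and OD600 up to 0.15 on both plates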;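 also: plate controls were untreated wells for no effect and antibiotic for full effect; wells of about 80 µL received 100 nL stock; the first replicate is given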
Sa RN4220 lethal = growth inhibition of S. aureus RN4220, primary screen, OD600; 16 h; inhibition, % (test concentration not listed); actives 0.33% (n = 330,000);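 active = z-score of -3 or lower and OD600 up to 0.18 on both plates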;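 also: plate controls were untreated cells for no effect and reference antibiotic for full effect; stock transfer was 100 nL into about 80 µL; one replicate is shown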
Mtb hypoxia rep growth = further read-out of Mtb hypoxia rep, marked with its call; growth inhibition, %; measured here: M. tuberculosis growth (absorbance);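 0% = vehicle and 100% = reference antibiotic; read after six days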
The depositor's hits bear a star; u = inconclusive; x = no result given.

SMILES	BJeLR viability	Autofluor counter	Mtb hypoxia rep	Mtb hypoxia rep growth	PrP 5UTR inh	ugtP null kill	Sa RN4220 lethal
O=C(NCc1ccco1)/C(=C\c1ccco1)NC(=O)c1cccs1	5	4272	-6	-1	-19	-8	5.9
O=C(Nc1c(F)c(F)c(F)c(F)c1F)NC1CCCCC1	3	u	-2	-3	-7	5	2.8
CCc1ccc(C(=O)COC(=O)c2cccc(N3C(=O)c4c(C)nc5ccccc5c4C3=O)c2)cc1	4	15325	6	5	-8	-6	11
CC(C)CCN1C(=O)c2ccc(C(=O)OCC(=O)N(C)C3CCS(=O)(=O)C3)cc2C1=O (stereo not given)	-3	5196	5	4	-15	4	4.0
CCOc1ccc(CN(C)C(=O)CN2C(=O)NC(c3ccccc3)(c3ccccc3)C2=O)cc1	x	7924	1	3	-13	2	0.8
Cc1cccc2nc(CSc3nnnn3-c3ccccc3)cn12	-2	3228	0	6	-3	-6	-0.1
O=C(NCCN1CCOCC1)N1CCOCC1	4	u	-4	-2	-10	-2	2.1
COc1ccc(C(=O)NCC(=O)OCC(=O)NC2CCCCCC2)cc1	x	3987	11	5	-24	10	6.3
O=C(NCCCn1ccnc1)c1cc(-c2ccc(Br)cc2)on1	4	4461	8	-3	-28	3	17
COc1ccc(CCN(C)C(=O)c2c(C)noc2C)cc1OC	x	3909	5	-10	-19	4	1.6
O=C(Cn1c(NCCO)nc2ccccc21)Nc1cccc(S(=O)(=O)N2CCCC2)c1	x	3405	19	14	-19	9	1.3
O=C(/C=C/c1cc([N+](=O)[O-])ccc1OC(F)F)Nc1cccc(OC(F)F)c1	-9	2027	10	0	-20	-2	0.1
O=C(O)CCc1ccc(-c2ccccc2)n1CC1CCCO1 (stereo not given)	0	4790	x	x	-4	5	3.8
COc1cccc(-c2nc(CS(=O)(=O)CC(=O)Nc3ccc(F)cc3F)c(C)o2)c1	3	5866	9	8	-20	-5	1.9
CC(C)n1c(O)c(/C=C2\C=Nc3ccccc32)sc1=Nc1ccccc1	1	8871	2	-5	13	12	-1.0
C=CCNS(=O)(=O)c1sccc1C=NO	x	x	-1	9	x	0	-0.2
Cc1ccc(C)c(-c2[nH]ncc2CN2CCCC(CO)(Cc3ccccc3C)C2)c1 (stereo not given)	1	4625	0	7	-4	0	-8.1
C=CCn1c(SCC(=O)O)nnc1-c1ccccc1	3	22122*	-13	10	2	-5	-3.8
CC1CCC(NC(=O)CN2C(=O)c3ccccc3S2(=O)=O)CC1 (stereo not given)	x	x	5	2	-23	11	8.1
CC(C)N(Cc1ccccc1)C(=O)/C=C/c1ccccc1[N+](=O)[O-]	-6	2107	5	4	-2	-6	5.8
Cc1cccc(C(=O)NCCc2nnc(SCC(=O)Nc3cccc(C(=O)O)c3)n2C)c1	x	4438	-5	-8	7	14	6.5
O=C(c1ccc(Cl)cc1)c1nnc(-c2ccncc2)o1	-2	3019	3	11	6	-4	4.2
Cc1csc(SCc2nc3sc4c(c3c(=O)[nH]2)CCC4)n1	-3	3526	13	6	-10	4	0.3
O=C(N/N=C/c1cn(Cc2ccccc2)c2ccccc12)c1ccncc1	1	4123	x	x	-1	x	x
COCc1c(C(=O)NN=Cc2cccs2)nnn1-c1nonc1N	x	x	-1	1	x	0	4.3

(cont.)
SMILES	BJeLR viability	Autofluor counter	Mtb hypoxia rep	Mtb hypoxia rep growth	PrP 5UTR inh	ugtP null kill	Sa RN4220 lethal
Clc1ccc(-n2cc(-c3ccc(Br)cc3)[n+]3c2CCCCC3)cc1	11	6078	7	2	-5	4	-0.7
Cc1ccc(F)cc1CNC(=O)C1CCC(=O)N(CC2CCCCC2)C1 (stereo not given)	0	4198	-9	-11	-20	-1	-2.4
N/C(Cc1ccc(Cl)cc1Cl)=N\OC(=O)Cc1ccc(Cl)cc1	18	2137	x	x	-14	x	x
CCOC(=O)N1CCN(C(=O)Nc2ccc3nc(-c4ccccn4)c(-c4ccccn4)nc3c2)CC1	-5	2888	14	16	-14	-3	-3.7
Cc1ccc(S(=O)(=O)Cc2ccc(C(=O)N3CCN(c4ccc(F)cc4)CC3)o2)cc1	18	6321	x	x	-2	-7	-2.9
CC(=O)/C(=C\N(C)C)Sc1ccc(Cl)cc1	6	4243	-4	-1	-1	4	2.2
CC(=NNC(=O)CNC(=O)c1cccnc1)c1ccco1	x	x	14	-2	x	1	2.7
Cc1cc(SCC(=O)OC(C)C(=O)N(C)c2ccccc2)nc2ccccc12 (stereo not given)	6	4368	-5	-4	-17	-5	-0.1
CCOc1ccc(CN2CCC(n3nccc3NC(=O)c3ccccc3OC)CC2)cc1	-8	4892	-4	3	3	-4	3.1
Cc1ccc(NC(=O)Cn2cnc3c(cnn3C(C)(C)C)c2=O)cc1	0	3415	17	7	-28	9	5.4
COc1ccc(NC(=S)Nc2ccc(OC(F)F)cc2)cn1	-6	4470	-1	20	-16	0	0.0
CC(C)C(N)c1cn(C(CO)C(=O)N2CCNCC2)nn1 (stereo not given)	x	x	4	3	x	-6	4.4
Nn1c(SCC(=O)Nc2c(F)cc(F)cc2Br)nnc1C1CCCCC1	6	5176	3	1	-7	11	6.2
COc1ccc(OCC(=O)Nc2ccc(NC(=O)c3ccco3)c(C)c2)cc1	-12	5972	-5	5	-15	5	0.0
Cc1cc(C(C)(C)C)cc(C)c1CCNC(=O)c1ccc[n+]([O-])c1	4	3351	7	1	-36	3	9.0
COCCn1c(N2CCN(c3ccc(OC)cc3)CC2)nc2c1c(=O)[nH]c(=O)n2C	6	5297	0	12	7	-2	-1.4
Cc1c(NC(=O)c2ccccc2N(C)S(=O)(=O)c2ccccc2)c(=O)n(-c2ccccc2)n1C	0	6019	2	0	-41	6	1.0
COc1ccc(C(=O)NC2CCN(C(=O)NCc3ccccc3)CC2)cc1	-3	5949	5	4	-3	6	6.9
O=C(NC1CCCC1)C(c1cccs1)N(C(=O)c1ccco1)c1ccc2c(c1)OCO2 (stereo not given)	-3	3908	x	x	-14	-4	-1.5
COC(=O)c1ccc(C)c(NC(=O)Cc2coc3cc(OC)ccc23)c1	-2	9515	7	-4	5	-1	-4.6
CCc1ccc2c(c1)C(c1ccc([N+](=O)[O-])cc1)=NNC(c1ccccc1)=N2	12	2197	12	9	-23	1	2.7
CCOc1ccc(N(CC(=O)N2CCN(c3ccccc3F)CC2)S(=O)(=O)c2c(C)noc2C)cc1	-8	5200	-3	7	-6	4	0.8
CN(Cc1ccc(F)cc1)C(=O)CCc1nnc(-c2ccccc2)o1	8	4060	11	7	-6	5	0.9
C[C@]12c3[nH]c4cc(-c5ccco5)ccc4c3CCN1C(=O)[C@@H](CC(=O)NCCN1CCOCC1)C[C@@H]2C(=O)N1CCCCC1	x	3482	-8	-3	-11	11	5.7
CCOc1ccc2[nH]c3c(NCCN(CC)CC)ncnc3c2c1	9	3776	9	8	3	7	1.5

Ordered by heavy-atom count (ascending): 13 of the compounds above.
SMILES	BJeLR viability	Autofluor counter	Mtb hypoxia rep	Mtb hypoxia rep growth	PrP 5UTR inh	ugtP null kill	Sa RN4220 lethal
CC(=O)/C(=C\N(C)C)Sc1ccc(Cl)cc1	6	4243	-4	-1	-1	4	2.2
CC(=NNC(=O)CNC(=O)c1cccnc1)c1ccco1	x	x	14	-2	x	1	2.7
COc1ccc(NC(=S)Nc2ccc(OC(F)F)cc2)cn1	-6	4470	-1	20	-16	0	0.0
Cc1cc(C(C)(C)C)cc(C)c1CCNC(=O)c1ccc[n+]([O-])c1	4	3351	7	1	-36	3	9.0
Cc1ccc(NC(=O)Cn2cnc3c(cnn3C(C)(C)C)c2=O)cc1	0	3415	17	7	-28	9	5.4
Nn1c(SCC(=O)Nc2c(F)cc(F)cc2Br)nnc1C1CCCCC1	6	5176	3	1	-7	11	6.2
Cc1cc(SCC(=O)OC(C)C(=O)N(C)c2ccccc2)nc2ccccc12 (stereo not given)	6	4368	-5	-4	-17	-5	-0.1
COCCn1c(N2CCN(c3ccc(OC)cc3)CC2)nc2c1c(=O)[nH]c(=O)n2C	6	5297	0	12	7	-2	-1.4
O=C(NC1CCCC1)C(c1cccs1)N(C(=O)c1ccco1)c1ccc2c(c1)OCO2 (stereo not given)	-3	3908	x	x	-14	-4	-1.5
CCOc1ccc(CN2CCC(n3nccc3NC(=O)c3ccccc3OC)CC2)cc1	-8	4892	-4	3	3	-4	3.1
Cc1c(NC(=O)c2ccccc2N(C)S(=O)(=O)c2ccccc2)c(=O)n(-c2ccccc2)n1C	0	6019	2	0	-41	6	1.0
CCOC(=O)N1CCN(C(=O)Nc2ccc3nc(-c4ccccn4)c(-c4ccccn4)nc3c2)CC1	-5	2888	14	16	-14	-3	-3.7
C[C@]12c3[nH]c4cc(-c5ccco5)ccc4c3CCN1C(=O)[C@@H](CC(=O)NCCN1CCOCC1)C[C@@H]2C(=O)N1CCCCC1	x	3482	-8	-3	-11	11	5.7

Remaining list, next part.
SMILES	BJeLR viability	Autofluor counter	Mtb hypoxia rep	Mtb hypoxia rep growth	PrP 5UTR inh	ugtP null kill	Sa RN4220 lethal
Cc1c(NC(=O)/C=C/c2ccc(S(=O)(=O)N3CCOCC3)cc2)c(=O)n(-c2ccccc2)n1C	-6	3935	-4	2	-37	3	3.6
Cc1ccc(C(=O)N(CC(C)C)c2nc3ccccc3s2)o1	-9	3744	8	12	-22	74	-3.7
C(=C\c1ccccc1)/CNCC1CCCO1 (stereo not given)	0	5002	7	11	-7	2	5.5
COc1ccc(C(=O)CCC(=O)N2CCN(c3ccccc3)CC2)cc1	-15	5978	x	x	-4	4	2.7
O=C(NCCc1c[nH]c2ccccc12)/C(=C/c1cccnc1)NC(=O)c1ccccc1	-12	3666	5	-2	-16	17	6.6
COc1cccc(CN(C)S(=O)(=O)c2ccccc2Br)c1	x	4600	-10	13	-7	1	6.4
COc1ccc(-c2noc(CSc3nc(N)cc(=O)[nH]3)n2)cc1	11	4300	13	8	-5	5	3.4
Nc1ccc2c(c1)sc1ccccc12	2	2491	-1	3	-55	2	-8.8
CCCCSc1nc2ccccc2n1CC(=O)O	-3	2360	x	x	-21	-6	-2.2
CCCCNC(=O)CCCCCNS(=O)(=O)c1ccc(Br)cc1	-4	4286	18	10	-19	2	-2.8
O=C(NCCN1CCOCC1)c1cc2n(n1)C(C(F)(F)F)CC(c1ccc(F)cc1)N2 (stereo not given)	-5	9726	5	8	x	5	5.2
COC(=O)c1ccccc1NC(=O)CSc1n[nH]c(CC(C)C)n1	2	4701	x	x	-34	-4	2.7
O=C(Cc1coc2ccc3ccccc3c12)Nc1nnc(C2CC2)s1	27	3228	3	1	-1	-5	-7.8
Cc1ccc(N(CCC#N)C(=O)COC(=O)c2nc3nc(C)cc(C)n3n2)cc1	-4	5894	8	3	-15	3	3.1
O=C(COc1ccc(F)cc1Cl)Nc1ccc(S(=O)(=O)Nc2nccs2)cc1	-6	6311	12	11	-28	7	2.1
CC1Cc2ccccc2N1C(=O)COC(=O)c1cccnc1Cl (stereo not given)	9	16252*	4	3	-9	-2	-2.0
CCOc1cc(C=NO)cc(Br)c1OC	x	x	19	11	x	5	9.1
Clc1ccc(CN(CC2CCCO2)C(c2cccs2)c2nnnn2C2CCCC2)cc1 (stereo not given)	-6	u	8	17	-15	-3	4.8
CCOC(=O)C1=C(C)NC2=C(C(=O)C(C(=O)OCC)C(c3cccc(OC)c3)C2)C1c1ccccn1 (stereo not given)	1	2107	x	x	-8	5	2.0
Cc1ccsc1C1CC(=O)NC2=C1C(=O)CC(C)(C)C2 (stereo not given)	4	2545	x	x	-12	-3	0.5
COc1ccccc1CNC(=O)C1CCCN(S(=O)(=O)c2cccc3nsnc23)C1 (stereo not given)	6	4333	-1	-6	0	4	0.6
Cc1ccc(N(C(=O)c2csnn2)C(C(=O)NC2CCCC2)c2cccnc2)cc1 (stereo not given)	-1	3717	2	6	-18	12	-0.4
O=C(O)c1cccc2c1C(=O)N(C1CCCC1)C2	-11	3522	-2	4	-14	4	3.0
COc1ccc(/C=C(\C#N)c2c[nH]c3ccccc23)cc1	52*	7522	4	10	-12	37	13
CCOc1ccc(-c2nc(CSc3nnc(N)s3)cs2)cc1OC	3	2216	x	x	0	-1	-3.7
CC(C)CC(CO)Nc1nc(Nc2cccc(Cl)c2)c2ncn(C(C)C)c2n1 (stereo not given)	x	x	0	8	x	-4	-4.9
